B2AR ag: human beta-2 adrenergic receptor agonism by FAP; P07550; Am2.2-beta2AR cells, FAP receptor internalization, flow cytometry; reference of the scale not given here; response, % (no concentration beside the values); 340,000 compounds, 0.43% hits; AID 504454;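 active means response above a set limit, near 3 SD of response in nonfluorescent compounds, cut at about 42% in these data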;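 further: stock transfer was 100 nL into about 11 µL; a reference agonist was the positive control; negative values mostly stem from fluorescent compounds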
ALR inh: inhibitors of human sulfhydryl oxidase ALR | P55789 | inhibition, % (test concentration not listed) | 290,000 compounds, 3.8% hits | purified ALR, DTT oxidation, H2O2 HRP-luminol luminescence;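 active means mean and each replicate at 75% or more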;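 further: stock transfer was 7.5 nL into about 7.5 µL; 0% = neutral wells and 100% = wells with inactivated enzyme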
Target sequence (P55789 whole entry, looked up): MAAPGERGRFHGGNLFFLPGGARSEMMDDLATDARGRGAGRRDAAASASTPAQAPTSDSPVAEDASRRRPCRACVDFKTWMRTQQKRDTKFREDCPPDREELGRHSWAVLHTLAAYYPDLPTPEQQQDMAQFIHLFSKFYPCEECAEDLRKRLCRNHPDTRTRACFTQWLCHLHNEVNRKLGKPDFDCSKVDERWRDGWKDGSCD
LANA-H2B inh: blocks KSHV LANA binding to histone H2A/H2B | Q9QR71 | cell-free LANA-H2A/H2B peptide, fluorescence polarization | inhibition, % (concentration not given with the values) | 320,000 compounds, 0.6% hits; in the data active means inhibition mostly above about 10%, no sharp cut-off; inactive means mostly below about 6.7%;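 further: stock transfer was 7.5 nL into about 10 µL; 0% = median of vehicle wells and 100% = median of positive control wells; one replicate is shown; the record names a cut of 25% in any replicate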
FGF22 binding: binders of recombinant human FGF22 by thermal shift. Q9HCT0. SYPRO orange fluorescence; percent of sucrose octasulfate shift, DMSO zero. calls only at 9.99 µM. 340,000 compounds, 1.5% hits;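 active means melting point raised past a set limit in the mean and every replicate; three in four hits are not shown here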
Target sequence (Q9HCT0 whole entry, looked up): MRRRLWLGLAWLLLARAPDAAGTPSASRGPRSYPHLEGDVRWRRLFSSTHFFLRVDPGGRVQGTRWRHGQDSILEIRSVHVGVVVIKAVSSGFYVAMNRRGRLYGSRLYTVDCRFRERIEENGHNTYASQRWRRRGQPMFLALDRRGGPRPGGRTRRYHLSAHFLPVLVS
UCH37 DUB inh: human UCH37 deubiquitinating enzyme inhibition; AID 588478; inhibition, % (no concentration beside the values); Q9Y5K5; 330,000 compounds, 0.33% hits; purified proteasome/UCH37, Ub-AMC cleavage fluorescence;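 active means mean of two replicates above 20%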;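 further: 0% = compound-free wells with enzyme and 100% = wells lacking proteasome; stock transfer was 100 nL into about 20 µL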
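Schedule: 30 min plus 25 min, room temperature / Material: human UCH37 within purified proteasomes / Technique: AMC fluorescence intensity at 355/460 nm / Buffer or medium: pH 7.4 Tris-HCl (50 mM) with ovalbumin, ATP-MgCl2, DTT / Controls: wells without proteasome as full block, compound-free enzyme plus substrate as uninhibited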
HNF4A DNA FP: change in binding of human HNF4 alpha to DNA; 360,000 compounds, 0.3% hits; P41235; activity change, % at 10 µM; AID 1224865; HNF4a-FITC DNA binding, fluorescence polarization, 1 h; in the data active means activity change above about 30%, passing the limit was not always enough;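 further: controls were the assay level and a saturating level of protein; the project sought stronger binding though the title names inhibitors; some compounds called inactive have numbers as strong as hits; positive values seem to mean higher polarization but the record does not say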
Target sequence (P41235 whole entry, looked up): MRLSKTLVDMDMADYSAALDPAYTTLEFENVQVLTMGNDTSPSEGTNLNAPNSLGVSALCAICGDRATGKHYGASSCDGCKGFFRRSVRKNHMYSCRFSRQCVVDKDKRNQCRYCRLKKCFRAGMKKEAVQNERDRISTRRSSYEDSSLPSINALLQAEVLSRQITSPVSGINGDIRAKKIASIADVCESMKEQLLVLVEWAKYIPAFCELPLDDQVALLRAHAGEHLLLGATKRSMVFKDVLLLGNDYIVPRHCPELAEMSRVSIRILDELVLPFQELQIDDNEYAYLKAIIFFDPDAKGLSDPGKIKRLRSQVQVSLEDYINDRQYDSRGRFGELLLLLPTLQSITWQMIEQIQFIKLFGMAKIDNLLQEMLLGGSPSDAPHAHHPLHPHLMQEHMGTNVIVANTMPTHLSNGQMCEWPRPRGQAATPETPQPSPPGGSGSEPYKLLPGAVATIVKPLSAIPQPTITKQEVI
E coli growth: E. coli growth inhibition. Escherichia coli growth, OD600, 23 h; stronger effect = lower value. 330,000 compounds, 0.21% hits. OD600 absorbance (concentration not given with the values);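 active means OD600 absorbance below the run mean of sample wells minus 3.6 SD, in any replicate, cut at about 0.56 in these data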;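 further: stock transfer was 300 nL into about 60 µL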
* marks the source's active call; other numbers are inactive results; i = inactive; · = not tested or not shown. Not all compounds are listed. The share of hits here may be higher or lower than overall.

entry	Compound	UCH37 DUB inh	ALR inh	E coli growth	HNF4A DNA FP	LANA-H2B inh	FGF22 binding	B2AR ag
1	O=C(N/N=C/c1ccc(F)c(F)c1)c1cc2c(s1)-c1ccccc1CC2	·	-5	·	-0.3	0.8	·	0
2	O=C(Nc1ccccc1Br)c1ccc(N2CCCC2=O)cc1	3.5	-5	0.68	7.1	0.7	i	1
3	CCC(=O)c1ccc(N2CCN(C(=O)c3ccc(F)cc3)CC2)c(F)c1	4.0	·	0.71	-2.9	0.0	i	-2
4	CCc1ccc(N2CC(C(=O)Nc3ccccc3F)CC2=O)cc1 (centres undefined)	1.7	-16	0.69	1.0	-0.3	·	-2
5	CCOc1ccc(-n2nnc3c(=O)n(CC(=O)NCc4ccco4)cnc32)cc1	3.0	-8	0.65	0.1	-2.5	i	-6
6	CCNC(=O)CC1SC(=Nc2cccc(Cl)c2C)N(C)C1=O (centres undefined)	3.1	-3	0.63	-6.4	-3.2	·	-1
7	Cc1ccc2cc(CN(C(=O)C3CCCO3)C3CCCCC3)c(=O)[nH]c2c1 (centres undefined)	-1.6	-1	0.79	4.9	0.7	·	2
8	Cc1ccccc1NC(=O)c1cn(-c2ccccc2)nc1-c1ccccc1	2.2	-2	0.69	0.0	-2.7	i	32
9	COc1cc(NC(=O)CCN2CCN(C)CC2)cc(OC)c1	3.4	-5	0.62	0.4	1.9	i	-3
10	COc1ccccc1N(CC(=O)NC1CCCC1)S(=O)(=O)c1ccc(C)cc1	1.0	-2	0.67	1.8	2.8	i	-4
11	CC(C)C(C)NC(=O)Cn1cnc2c(oc3ccccc32)c1=O (centres undefined)	4.0	-2	0.69	-0.7	4.5	i	0
12	CNC(=O)/C(=C\C=C\c1ccccc1)NC(=O)c1ccc([N+](=O)[O-])cc1	14	-4	0.67	-0.7	-2.5	i	-10
13	O=C(Nc1nc(-c2ccccc2)c(-c2ccccc2)s1)c1ccc(S(=O)(=O)N2CCCCC2)cc1	-58	-3	0.72	2.7	2.5	·	0
14	CCOc1ccc(N(CC(=O)Nc2nccs2)S(=O)(=O)c2c(C)noc2C)cc1	2.5	-191	0.68	5.3	0.2	i	3
15	CC(Sc1nnc2ccccn12)C(=O)Nc1ccc(N2CCOCC2)cc1 (centres undefined)	0.5	37	0.69	-7.0	1.2	i	3

Some values from the results shown.
In LANA-H2B inh, entry 10 reads 2.8
In ALR inh, entry 4 reads -16

Further structures follow.
entry	Compound	UCH37 DUB inh	ALR inh	E coli growth	HNF4A DNA FP	LANA-H2B inh	FGF22 binding	B2AR ag
16	Cc1ccsc1CNCc1cc(Cl)ccc1O	2.4	66	0.6	-1.2	-3.1	i	0
17	CCCCCCCCN1[C@@H](CC(=O)OC)c2cc(C(F)(F)F)ccc2S1(=O)=O	1.1	-2	·	-1.6	-1.4	i	1
18	CC(C)(C)C1CCC(=O)N(CCOc2ccccc2)CC1 (centres undefined)	1.6	1	0.79	0.4	3.4	i	-5
19	Oc1sc(C=Nc2ccccc2)c2ccccc12	-13	84*	0.7	24	-5.8	·	-11
20	COc1cccc(C(=O)NC2CCN(CC(=O)Nc3nccs3)CC2)c1	-0.7	-13	0.65	-1.9	-2.7	·	2
21	O=C(CSc1ccc(-c2ccco2)nn1)Nc1ccc(F)cc1F	0.7	-3	0.67	0.6	-5.1	i	0
22	CC(C)c1cc(C(=O)NNC(=S)NC2CCCCC2)cs1	2.7	22	0.67	-0.5	-1.4	i	-6
23	CCOCCCNC(=O)c1cc2cc3cc(OC)ccc3nc2o1	-384	·	0.67	0.2	-1.4	i	1
24	CN(C)CCNC(=O)C(C(=O)c1ccccc1)n1ccccc1=O (centres undefined)	3.5	0	0.68	5.3	-3.1	·	6
25	Nc1c2c(nc3ccccc13)CCCC2=O	-32	-5	0.64	4.0	-6.5	i	6
26	CC1CCN(C(=S)c2ccc3c(c2)OCO3)CC1	4.8	-2	0.71	-3.4	0.7	·	3
27	O=C(c1cc2ccccc2o1)N1CCN(Cc2ccc3c(c2)OCO3)CC1	-0.1	-14	0.64	1.9	2.6	i	-7
28	CC/C(=N\NC(=O)Cc1ccc(Br)cc1)c1cccs1	·	-5	·	5.7	1.7	i	-6
29	FC(F)(F)c1cc(-c2ccco2)nc(N2CCOCC2)n1	2.9	3	0.77	-3.3	-2.2	·	-5
30	O=C(Cn1cnc2c(nnn2Cc2ccccc2F)c1=O)NCc1ccco1	0.3	-4	0.61	-2.2	6.2	·	-2

Shown as labelled records: four of the compounds above
[10] COc1ccccc1N(CC(=O)NC1CCCC1)S(=O)(=O)c1ccc(C)cc1
  UCH37 DUB inh: 1.0
  ALR inh: -2
  E coli growth: 0.67
  HNF4A DNA FP: 1.8
  LANA-H2B inh: 2.8
  FGF22 binding: i
  B2AR ag: -4
[11] CC(C)C(C)NC(=O)Cn1cnc2c(oc3ccccc32)c1=O (centres undefined)
  UCH37 DUB inh: 4.0
  ALR inh: -2
  E coli growth: 0.69
  HNF4A DNA FP: -0.7
  LANA-H2B inh: 4.5
  FGF22 binding: i
  B2AR ag: 0
[12] CNC(=O)/C(=C\C=C\c1ccccc1)NC(=O)c1ccc([N+](=O)[O-])cc1
  UCH37 DUB inh: 14
  ALR inh: -4
  E coli growth: 0.67
  HNF4A DNA FP: -0.7
  LANA-H2B inh: -2.5
  FGF22 binding: i
  B2AR ag: -10
[13] O=C(Nc1nc(-c2ccccc2)c(-c2ccccc2)s1)c1ccc(S(=O)(=O)N2CCCCC2)cc1
  UCH37 DUB inh: -58
  ALR inh: -3
  E coli growth: 0.72
  HNF4A DNA FP: 2.7
  LANA-H2B inh: 2.5
  FGF22 binding: ·
  B2AR ag: 0

(list continues)
entry	Compound	UCH37 DUB inh	ALR inh	E coli growth	HNF4A DNA FP	LANA-H2B inh	FGF22 binding	B2AR ag
31	COc1ccc(NC(=O)CN2CCN(C(=O)c3ccco3)CC2)c(OC)c1	0.5	-5	0.68	0.0	-2.1	·	-3
32	CC12CC3(C)CC(C)(C1)CC(C(=O)NC(=S)NC(C)(C)C)(C2)C3	0.3	-3	0.71	-8.6	-1.0	i	12
33	C[C@@H](C(=O)NCc1ccccc1)N1C(=O)C2CC=CCC2C1=O (some centres undefined)	6.8	·	0.75	-2.1	1.2	·	8
34	COc1ccc(CCNC(=O)/C(C#N)=C/c2cccc(OCc3ccccc3)c2)cc1OC	-1.1	·	0.68	4.2	·	·	22
35	CCN1C(=O)CC(C(=O)NC)SC1=Nc1cc(Cl)c(O)c(Cl)c1 (centres undefined)	1.7	99*	0.72	-1.3	-0.7	·	0
36	NC(=O)C1CCN(C(=O)/C(=C/c2ccccc2)NC(=O)c2ccccc2)CC1	4.8	-8	0.74	3.2	7.0	i	-10
37	C#CCOCCOCCOCCNc1nc(N2CCN(C(=O)Cn3cc(CCCCN)nn3)CC2)nc(N2CCN(C(=O)[C@H]([C@@H](C)CC)n3cc(CCCCN)nn3)CC2)n1	1.0	·	·	6.1	3.7	i	-2
38	Cc1noc(C)c1NC(=O)Nc1cccc2c1O[C@H](CN(C)C(=O)Nc1ccc(C(F)(F)F)cc1)[C@@H](C)CN([C@H](C)CO)C2=O	4.1	-1	·	6.9	-2.7	i	8
39	O=C(Cc1ccc(Br)cc1)Nc1cccc(-c2cn3c(n2)SCC3)c1	2.5	12	0.66	0.5	-1.7	i	-14
40	CN(C)NC1CC(=O)N(c2ccccc2)C1=O (centres undefined)	3.2	23	0.64	-0.1	1.0	i	1
41	O=C(CSc1ccc(-c2cccs2)nn1)Nc1ccccc1	0.6	1	0.72	1.4	-2.7	i	-7
42	O=C(CN(Cc1ccco1)C(=O)CNS(=O)(=O)c1ccccc1)NCc1ccc(F)cc1	2.9	1	0.72	3.4	-4.0	·	-4
43	O=C(COc1ccc2ccccc2c1)NCCNC(=O)COc1ccc2ccccc2c1	-1.2	-12	0.74	1.1	1.5	·	0
44	COc1ccc(NC(=O)c2ccccc2NC(=O)CSc2ccc(C)cc2)cc1	1.7	-4	0.66	2.4	1.4	i	2
45	O=C(CNC(=O)Cc1ccccc1)NCC(=O)OCC(=O)c1ccc(Cl)cc1	2.3	-1	0.65	3.7	-1.9	·	0

Next section:
entry	Compound	UCH37 DUB inh	ALR inh	E coli growth	HNF4A DNA FP	LANA-H2B inh	FGF22 binding	B2AR ag
46	CC(C)(C)NC(=O)COC(=O)/C=C/c1ccccc1[N+](=O)[O-]	2.0	7	0.7	-6.6	-0.5	·	-6
47	Cc1ccc(Nc2cc(=O)n(C3CCCCC3)c(=O)[nH]2)cc1C	1.5	0	0.74	-2.7	1.6	·	9
48	CC(C)C(=O)Nc1ccc(N2CCN(S(C)(=O)=O)CC2)cc1	4.2	-9	0.72	2.6	-7.2	·	2
49	CC1CCCCN1c1ncnc(N)c1[N+](=O)[O-] (centres undefined)	2.9	·	0.71	5.7	-6.7	·	1
50	COc1ccc(C(=O)CN2CCN(c3cc(C)nc4ccccc34)CC2)cc1	6.2	21	0.64	3.6	5.7	i	-3
51	Cc1sc2nc(CN(Cc3ccccc3)C(=O)NC3CCCCC3)[nH]c(=O)c2c1C	3.3	0	0.71	-2.3	-2.9	·	-15
52	CCCCC(=O)Nc1c2c(nn1-c1ccc(C)cc1)CS(=O)(=O)C2	0.0	-3	0.69	2.4	-12	i	-1
53	CCC(C)NCCCCOc1cc(C)cc(C(C)C)c1 (centres undefined)	2.5	-2	0.72	-3.6	-1.1	i	11
54	COc1ccccc1CNC(=O)COC(=O)c1sc(C)nc1C	2.9	·	0.66	-2.4	·	i	5
55	O=C(CCCC(=O)c1ccc(O)cc1)c1ccc(O)cc1	3.5	2	0.62	1.1	-2.5	i	-9
56	CCOc1cc2[nH]c(=S)n(CCCC(=O)NCc3ccco3)c(=O)c2cc1OCC	4.2	-3	0.71	0.1	-25	i	-14
57	COc1cccc(C(=O)NC(=S)Nc2ccc(Cl)cc2C(=O)O)c1	-2.4	97*	0.75	0.0	4.2	i	2
58	CN(C)C(=O)c1nc2ccccc2s1	-0.4	0	0.68	2.4	1.1	i	12
59	COc1ccc(C(=O)NC(=S)Nc2cccnc2)cc1OC	3.2	40	0.69	4.1	-0.7	i	-7
60	CCOc1ccccc1CN(Cc1ccco1)S(=O)(=O)c1ccc(-n2cnnn2)c(OC)c1	-0.6	·	0.76	3.0	·	·	-7

New compounds follow
entry	Compound	UCH37 DUB inh	ALR inh	E coli growth	HNF4A DNA FP	LANA-H2B inh	FGF22 binding	B2AR ag
61	O=C(Cc1ccccc1)N1CCN(c2ccccc2F)CC1	1.9	2	0.67	1.6	-21	i	0
62	COc1ccc(NC(=O)c2cc(F)cc(F)c2)cc1S(=O)(=O)N1CCCCC1	-0.3	0	0.65	-0.4	18*	i	0
63	CC(C)CN1CCC(=O)N([C@H](CO)Cc2ccccc2)CC1	0.0	·	·	-2.5	4.3	i	-11
64	Cc1ccc(OCC(=O)c2cc(C)n(C3CC3)c2C)c([N+](=O)[O-])n1	3.0	5	0.66	-0.2	2.8	·	-7
65	O=c1cc(-c2ccc(O)cc2)oc2cc(O)c([C@@H]3O[C@H](CO)[C@@H](O)[C@H](O)[C@H]3O)c(O)c12	6.8	·	0.7	-3.5	·	i	-1
